# Yeast UUG start: modulators of start codon recognition fidelity in yeast; S. cerevisiae UUG-firefly luciferase reporter, luminescence/redox ratio; activity score, % at 18.7 µM; hit rate 0.13% among 350,000; AID 602363;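 active = replicate mean at a twofold rise or more, about +100% in these data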;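 note: firefly luciferase made from a UUG start codon reports start codon fidelity; reporter light over untreated wells divided by growth signal over untreated wells; some hits fall short of that in this replicate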
# eIF4H inh: inhibitors of RNA binding by human eIF4H. Q15056. eIF4H fluorescence polarization binding assay. inhibition, % at 35 µM. hit rate 0.94% among 290,000;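 active = 50% or more with normal probe brightness, or confirmed in later tests; about a fifth of its hits are not listed in these tables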;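 note: calls also rest on retests at 20 µM and on dose response follow-up; 0% = protein and probe with vehicle and 100% = probe without protein; strong numbers were not always called active; many hits fall short of the cut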
# CSC inhib: blocks cancer stem cells; cancer stem cell-like cells viability, luminescence; inhibition, % at 7.5 µM; hit rate 1.1% among 300,000; AID 2717;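 active = mean at 75% or more and at least half the replicates too; tested in HMLE shEcad cells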;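 note: 0% = median of negative and 100% = median of positive control wells; the first replicate is given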
# Rce1 inhib: blocks yeast Ras-converting enzyme | calls only | AID 2563 | Q03530 | hit rate 0.27% among 290,000 | yeast membranes, quenched prenylated peptide cleavage fluorescence;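 active = fall in fluorescence gain of 50% or more versus controls, with final raw signal at or below 3038400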;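 note: plate controls were neutral control wells for no effect and wells lacking membranes for full effect; tested at 10 µM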
# MT1-MMP act inh: MT1-MMP (human) activation inhibition; P50281; HT1080 RFP-PRO-GFP cells, GFP/RFP ratio fluorescence, overnight; percent of plate control window, DMSO zero; GFP/RFP ratio change, % at 20 µM; hit rate 0.061% among 360,000;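 active = GFP/RFP ratio change of at least 30% with cell ATP level not reduced by more than half and red fluorescence within 50% of control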; note: strong numbers were not always called active
#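 system = RFP-PRO-GFP reporter HT1080 cells | dosing = 20 µM single dose, 1% DMSO | timing = overnight cell settling, then overnight compound exposure, 37 °C, 5% CO2 | read-out basis = GFP/RFP fluorescence ratio | controls = DMSO and RFP-L50D-GFP cell wells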
# HIV Env fusion: blocks HIV Env-driven cell-cell fusion | inhibition, % at 12.3 µM | AID 651610 | hit rate 1.1% among 360,000 | HeLa-JRFL Env/CEM21 cell fusion, luciferase;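 active = mean replicate inhibition score of at least 50 and every replicate individually at or above 50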;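 note: 0% = plate neutral controls and 100% = maraviroc near 300 nM; one replicate is shown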
# PABP FP inh: PABP-poly(A) binding inhibition | PABP-poly(A) RNA binding, fluorescence polarization | inhibition, % at 35 µM | hit rate 1% among 290,000;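 active = 50% or more with normal probe brightness, or confirmed in later tests; about a fifth of its hits are not listed in these tables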;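 note: calls also rest on retests at 20 µM and on dose response follow-up; controls were probe without protein and protein plus probe with vehicle; some compounds called inactive have numbers as strong as hits; many hits fall short of the cut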
# Target sequence (P11940 whole entry, looked up): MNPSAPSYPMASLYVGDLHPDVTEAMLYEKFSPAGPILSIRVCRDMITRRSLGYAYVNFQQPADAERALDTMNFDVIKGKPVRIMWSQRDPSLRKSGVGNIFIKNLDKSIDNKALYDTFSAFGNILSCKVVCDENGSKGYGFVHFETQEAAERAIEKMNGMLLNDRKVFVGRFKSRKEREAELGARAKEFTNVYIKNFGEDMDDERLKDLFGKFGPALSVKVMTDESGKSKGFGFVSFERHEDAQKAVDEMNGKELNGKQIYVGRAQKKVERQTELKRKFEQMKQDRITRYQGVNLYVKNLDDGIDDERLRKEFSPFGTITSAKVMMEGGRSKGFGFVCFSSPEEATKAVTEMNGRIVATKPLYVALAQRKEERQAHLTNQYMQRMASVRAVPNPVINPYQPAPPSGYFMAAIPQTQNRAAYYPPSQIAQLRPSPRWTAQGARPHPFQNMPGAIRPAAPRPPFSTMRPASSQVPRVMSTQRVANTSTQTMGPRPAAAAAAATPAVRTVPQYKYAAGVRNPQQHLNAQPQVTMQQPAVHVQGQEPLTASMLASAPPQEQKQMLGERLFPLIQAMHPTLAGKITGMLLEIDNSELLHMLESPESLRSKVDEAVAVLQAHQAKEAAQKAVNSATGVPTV
# eIF4H inh retest: second read-out of eIF4H inh, no call of its own (marks repeat the call); inhibition, %; compound at 20 µM; confirmation average;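 mean of two retest wells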
# PABP FP inh retest: also measured in PABP FP inh; calls as there; inhibition, %; compound at 20 µM; confirmation repeats;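 mean of two retest wells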
# MT1-MMP act inh RFP: also measured in MT1-MMP act inh; calls as there; RFP signal change, %; measured here: RFP expression control read;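 0 = vehicle wells; hits needed this value within 50% of zero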
# Active calls of the source: *; i = inactive; · = not tested or not shown; & = joins results of further samples; [ ] = remark or other dose.
SMILES,Yeast UUG start,eIF4H inh,CSC inhib,Rce1 inhib,MT1-MMP act inh,MT1-MMP act inh RFP,HIV Env fusion,PABP FP inh,others
Cn1c2ccc(F)cc2c2ncn(CCCN(CCO)CCO)c(=O)c21,-4,-6,-15,i,1,0,-7,10,
CCN(CC)c1ccc(/C=c2\sc3nnc(-c4ccccc4Cl)n3c2=O)cc1,-15,127,4,i,-18,-2,5,120,eIF4H inh retest=-1;PABP FP inh retest=9
C(=Nc1ccc(N2CCOCC2)cc1)c1c[nH]c2ccccc12,-13,0,0,i,0,5,0,-6,
CCOC(=O)C1CCCN(S(=O)(=O)c2ccc(C)cc2)C1 (stereo not drawn),-6,1,14,i,4,1,-13,6,
COc1ccc2sc(-c3ccccc3OC)c(-c3ccc(O)cc3)c2c1,-10,·,109*,·,-1,-3,15,·,
Cc1ccc(C)c(C(=O)Nc2nc3ccccc3[nH]2)c1,-19,7,-3,i,7,5,-8,12,
CC1(C)C(C(=O)O)N2C(=O)C(NC(=O)Cc3ccccc3)C2S1=O (stereo not drawn),-2,8,-10,·,1,0,-10,15,
CCc1ccccc1N1C(=O)C2C3CC(=O)C(c4ccccc43)C2C1=O (stereo not drawn),·,-2,4,i,0,2,8,-8,
CCc1nc2ccccc2n1CC(=O)OCC(=O)N(CC(C)C)c1c(N)n(Cc2ccccc2)c(=O)[nH]c1=O,·,·,0,i,1,0,-6,·,
O=c1[nH]c(SCc2ccccc2Cl)nc2[nH]ncc12,·,-8,13,i,-1,1,13,-1,
O=C(Cc1cccc2ccccc12)N/N=C/c1ccc(F)cc1,-7,1,-4,·,9,-10,·,1,
CCOc1ccccc1NC(=O)c1cc(S(=O)(=O)N2CCC3(CC2)OCCO3)ccc1F,-18,-4,-4,i,-1,-4,18,-5,
COCCn1c(SCC(=O)Nc2ccccc2F)nc2c(c1=O)SCC2,-12,2,0,i,2,-2,-28,-5,
CSc1ncccc1C(=O)Nc1cccc(S(=O)(=O)N2CCCCC2)c1,-11,·,-7,·,-2,-7,·,·,
O=C(Oc1cccc(C(=S)N2CCOCC2)c1)c1ccccc1,-2,9,4,i,-3,1,-6,7,
O=C(NCC1CCCO1)c1cc(Br)c(Br)s1 (stereo not drawn),5,-4,-10,i,4,3,0,1,
Cc1oc2c(C)c3oc(=O)c(CCC(=O)O)c(C)c3cc2c1-c1ccccc1,-13,-8,14,i,18,-5,20,30,
CC(=O)c1sc(NC(=O)CS(=O)(=O)c2ccc(F)cc2)nc1C,·,·,0,i,1,4,4,·,
C#CCOC(=O)c1ccccc1C(=O)O,-12,4,-23,i,1,0,·,-3,
O=C(Nc1ccccn1)c1ccc(Cl)c(S(=O)(=O)N2CCCCCC2)c1,4,·,-12,i,-4,-14,-15,·,
COc1ccc(-n2nc(C(=O)NCC(=O)NC(C)C)c3ccccc3c2=O)cc1OC,·,3,-12,i,4,5,-2,4,
COc1ccc(S(=O)(=O)N2CCCOC2CNC(=O)C(=O)NCc2ccco2)cc1 (stereo not drawn),·,4,-5,i,3,4,3,2,
Cc1ccc2cc(CCNC(=O)c3cccc([N+](=O)[O-])c3)c(=O)[nH]c2c1C,-5,-11,-4,i,4,-13,·,-5,
CCc1cc(C=C(Cl)Cl)oc(=O)c1C,-10,-11,-7,i,-6,-4,·,-11,
COc1cccc(C(=O)C(C#N)=C(SC)SC)c1,1,2,83*,i,2,5,2,8,
SMILES,Yeast UUG start,eIF4H inh,CSC inhib,Rce1 inhib,MT1-MMP act inh,MT1-MMP act inh RFP,HIV Env fusion,PABP FP inh,others
CC(C)OC(=O)C1C2C=CC3(CN(Cc4cccs4)C(=O)C13)O2 (stereo not drawn),4,-7,-16,i,4,0,·,3,
COc1cc(OC)c(OC)cc1CN1CCC(O)CC1,·,4,-11,i,-1,0,-22,3,
COc1ccc(C(=O)Nc2cccnc2Cl)cc1OC,4,-2,-10,i,-3,1,-13,5,
COc1ccc(-c2nc(CN3CCC(C(=O)NC4CCN(Cc5ccccc5)CC4)CC3)c(C)o2)cc1OC,-13,-2,-12,i,8,6,2,12,
O=C(Nc1ccc(S(=O)(=O)NC2=NCCCCC2)cc1)c1cc(S(=O)(=O)N2CCOCC2)ccc1F,4,-8,-7,i,-2,2,-7,6,
CC(C)(CSc1ncccn1)NS(=O)(=O)c1ccccc1,-14,2,11,i,4,2,5,7,
Cc1cc([N+](=O)[O-])ccc1NC(=O)c1ccco1,·,-5,1,i,2,4,1,6,
CCCCN(C(=O)C1CC(=O)N(Cc2ccc(C)cc2)C1)c1c(N)n(CCCC)c(=O)[nH]c1=O (stereo not drawn),-7,·,-11,i,0,2,-24,·,
Cc1nn(-c2ccccc2)c(Cl)c1C(=O)Nc1c(C)n(C)n(-c2ccccc2)c1=O,-5,-3,-6,·,-3,-1,·,-10,
Cc1ccc2nc(C)cc(N/N=C/c3ccc(F)cc3)c2c1,-25,-10,-1,i,2,-3,16,-3,
O=C(c1ccc(Cl)cc1Cl)N1CCSCC1,-9,-4,-1,·,-2,-1,-8,10,
COc1ccc(S(=O)(=O)n2nc(OCc3cccs3)cc2N)cc1,-13,-6,-3,i,2,-8,3,-3,
COc1ccc(NC(=O)CC(C)C)c([N+](=O)[O-])c1,0,-2,-6,i,-1,3,2,3,
Cc1ccc(N2C(=O)c3sc4nnc(C)c(=O)n4c3C2=O)cc1,-10,10,-15,i,3,0,·,-6,
O=C(NCCCN1CCOCC1)c1nn(-c2ccccc2)c(=O)c2ccccc12,-7,·,-9,i,-3,-2,12,·,
O=C(Nc1ccc(Cl)cc1)c1cccnc1N1CCCCC1,-8,-2,5,·,0,-4,5,-2,
Oc1ccccc1-n1nc2ccc3nonc3c2n1,·,29,-17,i,-1,-1,-6,39,
N=C(N)c1ccccc1,1&-9,-11,5&-7,i,2&0,3&0,-3&3,-3,
CC(=O)N1C(C)(C)CC(=NOC(=O)c2ccc(C)cc2)CC1(C)C,·,-2,-20,i,-2,3,-3,-2,
NC(c1ccccc1)c1csc(NC(=O)Nc2cccc(Cl)c2)n1 (stereo not drawn),-9,·,·,·,1,-7,37,·,
Cc1cc(C)c(S(=O)(=O)Cc2ccccc2)c(OC(C)C)n1,-7,3,4,i,-2,3,-5,1,
CC(C)(C)NC(=O)NC(=O)COC(=O)c1cccc(OC(F)F)c1,-2,-1,-9,i,2,3,4,12,
O=[N+]([O-])c1ccc2ccn(C3OCC(O)C(O)C3O)c2c1 (stereo not drawn),·,-6,-2,i,1,-3,6,-7,
CC(=O)CSc1ncnc2sc3c(c12)CCC3,·,4,-5,i,-5,-4,-10,24,
Cc1ccc(S(=O)(=O)N(C)C)cc1NC(=O)CSc1ncc(C(F)(F)F)cc1Cl,·,4,-8,i,7,-7,-7,-12,

# By substructure, the entries above with a COOH group (3)
SMILES,Yeast UUG start,eIF4H inh,CSC inhib,Rce1 inhib,MT1-MMP act inh,MT1-MMP act inh RFP,HIV Env fusion,PABP FP inh,others
CC1(C)C(C(=O)O)N2C(=O)C(NC(=O)Cc3ccccc3)C2S1=O (stereo not drawn),-2,8,-10,·,1,0,-10,15,
Cc1oc2c(C)c3oc(=O)c(CCC(=O)O)c(C)c3cc2c1-c1ccccc1,-13,-8,14,i,18,-5,20,30,
C#CCOC(=O)c1ccccc1C(=O)O,-12,4,-23,i,1,0,·,-3,

# Additional records.
SMILES,Yeast UUG start,eIF4H inh,CSC inhib,Rce1 inhib,MT1-MMP act inh,MT1-MMP act inh RFP,HIV Env fusion,PABP FP inh,others
CCc1ccc(NC(=O)c2cc(S(=O)(=O)N3CCCC3)c[nH]2)cc1,-18,18,2,i,0,-15,·,-2,
Cc1ccc(NC(=O)c2cccc(S(=O)(=O)N3CCN(c4ccccc4)CC3)c2)nc1,-15,·,14,i,-4,-29,57*,·,
CC1(C)CC(=O)C2=C(C1)OC(N)=C(C#N)[C@@]21C(=O)N(CC(N)=O)c2ccccc21,-1,2,-6,i,-4,-2,·,7,
Cc1nnc(SCCn2c(N3CCCCC3)nc3c2c(=O)n(C)c(=O)n3C)s1,-7,·,-1,i,0,3,-34,·,
Cc1cccc(/C=N/NC(=O)c2ccncc2)n1,·,13,-1,i,0,-1,-3,11,
Cc1ccc(S(=O)(=O)CCC(=O)Nc2cc(Cl)ccc2-n2cncn2)cc1,·,·,-8,i,-3,3,-2,·,
O=C(NCC1CCC(C(=O)O)CC1)OCc1ccccc1 (stereo not drawn),·,-2,-5,i,2,3,20,1,
COc1ccc(CN2CCC(n3nccc3NC(=O)c3ccc4c(c3)OCO4)CC2)cc1C,-1,-6,4,i,-1,-1,-5,-2,
COc1cccc(CC2(CO)CCCN(C(=O)c3cc[n+]([O-])cc3)C2)c1 (stereo not drawn),-12,-1,-5,i,7,-1,9,13,
OCc1cn(-c2ccccc2)nc1-c1ccco1,-17,16,10,i,2,5,-21,15,
Cc1ccc(-n2c(=O)[nH]cc(C(=O)Nc3ccc4c(c3)OCCO4)c2=O)cc1,-6,1,5,i,2,0,-8,4,
COc1ccc([N+](=O)[O-])cc1NC(=O)CSc1ncccn1,·,-12,-10,i,3,0,12,-7,
C/C(=N\NC(=O)Cn1ccc(C(F)(F)F)n1)c1ccc(N2CCOCC2)cc1,-10,-5,2,i,-1,-3,-2,11,
O=C(CN1CCN(S(=O)(=O)c2ccc(F)cc2)CC1)Nc1ccccc1F,-6,-7,-3,i,-2,0,·,-4,
COc1ccccc1Sc1ccccc1/C=N/NC(N)=O,·,-4,·,i,4,4,-12,-13,
O=C(COC(=O)C1CC(=O)N(Cc2ccco2)C1)c1ccc(OC(=O)c2ccco2)cc1 (stereo not drawn),-12,45,·,i,-4,1,-8,16,
COc1cc2[nH]c3ccccc3c2cc1C,-21,2,-12,i,-1,4,·,17,
Cc1ccc(S(=O)(=O)N2CCN(C(=O)CCn3nc(C)c(C)c3C)CC2)cc1C,7,0,-7,·,1,1,0,-6,
O=C(CCl)Nc1cccc(-c2cnc3ccccc3n2)c1,-12,-4,41,i,-11,-9,-213,0,
Cc1cccc(S(=O)(=O)N[C@@H]2CC[C@@H](CCNS(=O)(=O)c3ccccc3F)O[C@@H]2CO)c1,11,·,·,·,-2,2,6[16.7 µM],·,
Cc1[nH]n(C(N)=S)c(=O)c1N=Nc1cccc(Cl)c1,-27,2,5,i,6,-5,-40,-4,
Cc1cccc(N=C2NC(=O)/C(=C/c3cccnc3)S2)c1C,-19,4,-6,i,-4,-7,-16,2,
Cc1cc(C)cc(NC(=O)[C@H](NC(=O)[C@@H]2Cc3ccccc3CN2)c2ccccc2)c1,·,-2,19,i,2,0,·,1,
O=C(O)CCc1nc2ccccc2c(=O)[nH]1,-24,-8,-16,i,-1,3,29,3,
Cc1ccc(CNC(=O)/C(C#N)=C\c2ccc(N(C)C)cc2)cc1,·,2,7,i,·,·,·,-5,
SMILES,Yeast UUG start,eIF4H inh,CSC inhib,Rce1 inhib,MT1-MMP act inh,MT1-MMP act inh RFP,HIV Env fusion,PABP FP inh,others
Cc1ccc(-c2nc(NC(=O)CSc3ccc4ccccc4n3)ns2)cc1,-14,-4,-8,i,-3,2,-11,66,eIF4H inh retest=11;PABP FP inh retest=7
CC(C)c1ccccc1NC(=S)N1CCN(S(=O)(=O)c2cccs2)CC1,-12,-4,·,i,-1,1,-13,-4,
CCCCOc1ccc(C(=O)NCC(=O)NCC(c2cccs2)N2CCOCC2)cc1 (stereo not drawn),-5,·,-12,·,2,-1,·,·,
O=C(c1ccc2ccccc2c1)N1CCN(c2ccc([N+](=O)[O-])c(N3CCOCC3)c2)CC1,-13,-14,2,i,8,-1,·,-8,
CCCOc1ccc(/C=N/Nc2ccccc2[N+](=O)[O-])c(OCCC)c1,·,-4,9,i,14,-1,-14,-3,
Cn1c(=O)oc2cc(S(=O)(=O)N3CCCC(C(=O)Nc4ccccn4)C3)ccc21 (stereo not drawn),12,-3,-13,i,3,-2,17,5,

# Source: PubChem (several laboratories)
